# From PubChem
# RecA intein inh: Mtb RecA intein splicing inhibition. cell-free RecA intein splicing, fluorescence. inhibition, %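 (about 9 µM by stock and volumes)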. AID 2221. P9WHJ3. 0.75% of 290,000 active; in the data active = inhibition above about 30%; inconclusive = no clear call, values can overlap the other calls;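 also: 0% = vehicle wells and 100% = reference inhibitor control wells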
# Target sequence (P9WHJ3 whole entry, looked up): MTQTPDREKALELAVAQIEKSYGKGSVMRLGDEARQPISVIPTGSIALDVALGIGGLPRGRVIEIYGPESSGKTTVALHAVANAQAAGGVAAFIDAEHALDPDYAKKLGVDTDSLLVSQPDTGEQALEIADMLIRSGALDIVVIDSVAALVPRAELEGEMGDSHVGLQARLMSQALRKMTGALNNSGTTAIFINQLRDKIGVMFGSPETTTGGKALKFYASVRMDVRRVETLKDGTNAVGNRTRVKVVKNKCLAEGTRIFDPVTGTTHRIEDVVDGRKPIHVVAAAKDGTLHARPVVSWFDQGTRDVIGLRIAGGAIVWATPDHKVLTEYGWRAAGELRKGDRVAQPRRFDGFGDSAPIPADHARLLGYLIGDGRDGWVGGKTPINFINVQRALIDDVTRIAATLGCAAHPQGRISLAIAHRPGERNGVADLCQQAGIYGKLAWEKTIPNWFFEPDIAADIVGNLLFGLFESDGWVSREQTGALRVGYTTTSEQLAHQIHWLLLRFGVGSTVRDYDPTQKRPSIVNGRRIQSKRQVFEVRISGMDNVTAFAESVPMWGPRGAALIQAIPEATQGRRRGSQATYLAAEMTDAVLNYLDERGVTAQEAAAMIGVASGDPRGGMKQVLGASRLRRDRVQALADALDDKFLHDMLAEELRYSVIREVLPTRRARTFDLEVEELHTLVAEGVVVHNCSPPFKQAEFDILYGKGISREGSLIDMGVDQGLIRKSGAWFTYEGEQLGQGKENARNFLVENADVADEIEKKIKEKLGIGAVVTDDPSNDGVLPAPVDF
# Mtb growth: M. tuberculosis H37Rv growth inhibitors, H37Rv strain (AID 1626); M. tuberculosis H37Rv growth inhibition; higher % means a stronger effect; inhibition, % at 10 µM; hits with a dose series show IC50 in µM; 0.95% of 220,000 active;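 active = confirmed in a dose series; inconclusive = inhibition above 80% but not taken into the dose series; inactive = below 80% or under 30% at every dose of the series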;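 also: bacteria incubated seven days before Alamar blue readout; 0% = bacteria only wells and 100% = bacteria with antibiotic wells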
# YopH PTP inh: inhibitors of Yersinia enterocolitica YopH tyrosine phosphatase | fluorescence Ex485/Em525 | inhibition, %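 (about 10 µM by stock and volumes)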 | 0.16% of 140,000 active;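 active = inhibition of 50% or more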;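 also: controls were vehicle for no effect and minimum signal wells for full effect; inactives centre near -20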
# Mtb betalactam: beta-lactam sensitization of Mtb H37Rv | M. tuberculosis H37Rv growth with meropenem, percent inhibition; hits of this screen are not shown here | inhibition, % at 25 µM | 0.27% of 330,000 active;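 active = about 74% or more and at least 40 points above the plate without the antibiotic, then above 30% in a dose series; inconclusive = first-round hits that could not be retested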;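 also: growth measured after seven days incubation then overnight dye step; 0% = bacteria only wells and 100% = bacteria with antibiotic; twin plates without the antibiotic show which effects depend on it; some results filed as inactive read as strong as hits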
# Arbovirus inh: arbovirus infection inhibition; arbovirus infection cell-based antiviral screen; inhibition, % at 10 µM; 0.37% of 200,000 active; AID 1251;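 active = inhibition from about 30%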;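 also: bluetongue infection of BSR cells; cell survival read as ATP light after 72 h; 0% = infected wells without compound and 100% = uninfected wells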
# Arbovirus inh repeat: recorded beside Arbovirus inh, whose call it bears; inhibition, %; measured here: 10K subset replicate screen; many hits read low in the repeat;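 first of two repeat runs on a subset; 0% = infected and 100% = uninfected wells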
# * = called active by the depositor; ? = inconclusive; · = not tested or not shown. These rows are one share of the data. The share of hits here may be higher or lower than overall.
SMILES,RecA intein inh,Mtb growth,YopH PTP inh,Mtb betalactam,Arbovirus inh,others
CCOc1cc(N2CCOCC2)c(OCC)cc1NC(=O)COC(=O)c1cc2ccccc2cc1O,0.6,0%,-12,70,1,
COc1cc(C2=NOC(C(=O)NCc3ccccn3)C2)cc(OC)c1OC (stereo not given),2.9,-3%,-21,1,4,
CSc1ccc(/C=C(\NC(=O)c2ccccc2)C(=O)NCCN2CCOCC2)cc1,-0.5,·,·,1,·,
Cc1sc2c(c1C)c(=O)n(-c1ccc(Cl)cc1)c(=O)n2Cc1cc(=O)n2ccccc2n1,-5.1,-12%,-24,8,2,
O=C(c1cnsn1)N1CCC(CO)(Cc2cccc(F)c2)CC1,2.1,-3%,·,-5,7,
COc1ccc(OCC(=O)Nc2c(C(=O)N3CCC(N4CCCCC4)CC3)oc3ccccc23)cc1,-2.0,·,·,-1,·,
C=CCn1c(CNC(=O)c2ccccc2F)nnc1SCc1nc2ccccc2c(=O)[nH]1,-3.2,-4%,·,2,0,
COc1ccc(-c2cc(C)no2)cc1S(=O)(=O)N1CCN(c2ccccn2)CC1,-2.0,·,·,0,·,
O=C(Nc1ccc2c(c1)CCC2)c1ccccc1F,3.2,8%,-23,3,-3,
CC1CN=C2C(C(=O)Nc3ccccc3)=C(O)CC(c3ccccc3)N21 (stereo not given),1.9,11%,-22,8,-2,
Fc1ccccc1C(c1nnnn1Cc1ccc2c(c1)OCO2)N1CCN(Cc2ccco2)CC1 (stereo not given),-0.8,1%,-9,-3,9,
Cc1c(Nc2nc(-c3cccc([N+](=O)[O-])c3)cs2)c(=O)n(-c2ccccc2)n1C,1.8,-3%,·,-3,2,
O=c1cc(-c2ccccc2)c2ccc(O)cc2o1,-16,·,·,3,·,
CCc1ccc(-c2cc(C(=O)Nn3cnnc3)c3ccccc3n2)cc1,4.5,12%,-44,30,-6,
COc1ccc(-c2cc(C)no2)cc1S(=O)(=O)NCc1cccc(C)c1,-0.5,·,·,3,·,
COc1ccc(N(CC(=O)N2CCc3ccccc32)S(=O)(=O)c2c(C)n[nH]c2C)cc1,1.0,2%,-33,-8,5,
COC(=O)c1cc2c(ccn2-c2ccc(F)cc2)n1CC(=O)OC(C)C,·,-1%,·,5,-2,
Cc1[nH]c(=O)[nH]c(=O)c1S(=O)(=O)NCC12CC3CC(CC(C3)C1)C2,4.7,1%,-41,3,-1,
COc1cccc(-c2cc(C(=O)N3CCCCC3C)no2)c1 (stereo not given),-7.6,·,-7,68,-4,
COc1ccc(Nc2nc(C)nc3c2oc2ccccc23)cc1,2.7,·,·,3,·,
CCOc1cc(C(C(=O)NCC2CCCO2)N(C(=O)Cn2nnc3ccccc32)c2cccc(OC)c2)ccc1O (stereo not given),-4.6,·,·,-7,·,
Cc1nc(-c2cc(-c3nc(-c4ccc(C(F)(F)F)cc4)no3)no2)cs1,·,7%,·,-3,·,
NS(=O)(=O)c1ccc(NC(=S)NC(=O)c2ccc(-c3ccccc3)cc2)cc1,0.5,12%,-24,-1,-1,
COc1cccc(CNCc2ccc(SC)cc2)c1OC,0.7,-5%,-41,-7,9,
CCOC(=O)c1ccc2c(c1)N(CC(=O)N1CCCC1)C(=O)C(C)(C)O2,·,1%,-35,4,4,
# Carrying on.
SMILES,RecA intein inh,Mtb growth,YopH PTP inh,Mtb betalactam,Arbovirus inh,others
Cc1ccc(/C(N)=N/OC(=O)c2cc(-c3ccccc3)nc3ccccc23)cc1,-0.6,0%,-39,1,0,
Cc1cc(=S)c2cccc(C)c2[nH]1,0.2,-7%,·,-4,0,
O=S1(=O)CCN2C(c3ccc4c(c3)CCCC4)=CSC2=N1,-0.3,6%,1,9,-6,
COCCNS(=O)(=O)c1ccc(-c2ccc(S(=O)(=O)NCCOC)cc2)cc1,·,·,-36,-6,4,
Cc1[nH]nc2c1C(c1ccc(Cl)cc1)C(C#N)=C(N)O2 (stereo not given),75*,-11%,-20,-1,2,
COc1cccc(-n2c(SCC(=O)NCC3CCCO3)nc3c([nH]c4ccccc43)c2=O)c1 (stereo not given),0.8,·,·,-5,·,
O=C(Oc1c(-c2ccccc2)oc2ccccc2c1=O)c1ccccc1,-0.6,·,-30,100,0,
O=C(Nc1ccccc1Cl)c1ccccc1Cl,0.7,12%,-13,-1,3,
Cc1ccc2c(c1)c(=O)c(Br)c(C)n2Cc1ccccc1,4.8,5%,-22,18,-12,
COc1ccc2[nH]c3c(=O)n(Cc4ccc(C(=O)N5CCC(C(N)=O)CC5)cc4)c(=S)[nH]c3c2c1,-1.3,-6%,·,6,7,
COC(=O)c1cc(Cl)c(N)cc1OC,-0.3,-20%,-31,-3,2,
NC(=O)CC[C@@H]1NC(=O)[C@H](Cc2ccccc2)NC(=O)[C@H](Cc2ccc(O)cc2)NC(=O)[C@@H](N)CSSC[C@@H](C(=O)N2CCC[C@H]2C(=O)N[C@@H](CCCN=C(N)N)C(=O)NCC(N)=O)NC(=O)[C@H](CC(N)=O)NC1=O,·,·,-19,·,-1,
COc1ccc2[nH]c(=O)c(CN(CCO)S(=O)(=O)c3ccc(C)cc3)cc2c1,0.8,-5%,·,0,-2,
Cc1oc2c(cc(NS(=O)(=O)c3ccc(F)cc3)c3ccccc32)c1C(=O)O,-0.9,·,·,11,·,
CNC(=S)N(Cc1cc2cc(C)cc(C)c2[nH]c1=O)C1CCCC1,1.0,·,·,-1,-13,
S=C(Nc1ccc(Cl)cc1)N(CCCN1CCOCC1)Cc1cccs1,0.1,10%,·,-7,4,
Cc1cccc2sc(N(CCN(C)C)C(=O)c3ccc4ccccc4c3)nc12,13,·,·,?,·,
Cc1cc(Br)ccc1SCC(=O)OC/C(O)=C(\C#N)c1nc2ccccc2[nH]1,0.1,78%,·,63,·,
CCO[C@@H]1OC(C(=O)NCc2ccccc2)=C[C@H](C(C)(C)C)[C@H]1CCCO,0.0,-1%,·,-5,·,
O=C(NC1CCCCC1)c1ccc(CN2CCOCC2)cc1,·,1%,3,-1,-3,
Cc1ccc(S(=O)(=O)Nc2cc(C(F)(F)F)ccc2N2CCOCC2)c(C)c1,1.4,3%,-37,3,8,
Cc1cc(S(=O)(=O)NCc2ccccc2)ccc1OCC(=O)NCC1CCCO1 (stereo not given),-4.0,-4%,·,-2,7,
COCCSc1nc2c(c(=O)[nH]c(=O)n2C)n1Cc1cccc(C)c1,3.5,6%,-38,3,0,Arbovirus inh repeat=9
Cc1cccc(NC(=O)CS(=O)(=O)c2cn(CC(=O)N3CCOCC3)c3ccccc23)c1,6.2,4%,·,-2,0,
N#CC(C(=O)NC1CCCCC1)=C1CCCCCC1,1.1,6%,-44,5,3,
# More structures follow.
SMILES,RecA intein inh,Mtb growth,YopH PTP inh,Mtb betalactam,Arbovirus inh,others
CC(Oc1ccccc1)C(=O)Nc1ccc(NC(=O)c2ccccc2)cc1 (stereo not given),-5.0,·,·,-2,·,
CSc1ccc(/C=N/N2CCN(Cc3ccccc3)CC2)cc1,-0.9,-7%,·,-2,-11,
Cc1ccc(C(=O)OCC(=O)Nc2cc(F)ccc2F)cc1NC(=O)c1ccco1,3.9,-3%,-21,1,2,
COC(=O)c1ccc(CNC(=O)C(NC(=O)c2ccco2)C(C)C)cc1 (stereo not given),-2.6,·,·,1,·,
COC(=O)c1c(C)[nH]c(O)c1C=Nc1ccc(C#N)cc1,-7.9,8%,·,-6,-1,
CCN(C(=O)CCc1ccccc1)C1CCCCC1,1.2,·,·,6,·,
Cc1ccccc1-c1nc2ccccc2c(=O)n1/N=C/c1ccccc1[N+](=O)[O-],0.5,6%,-2,8,4,
COCCN1C=C2C(=O)C(C)(OC(=O)CCC(=O)OC)C(=O)C=C2C=C1C1CC1 (stereo not given),19,1%,·,-1,·,
CC1CCN(C(=O)C2CCN(S(=O)(=O)c3ccc4c(c3)CC(C)N4C(=O)C3CC3)CC2)CC1 (stereo not given),-1.7,·,·,-7,·,
COc1ccc(CCc2nnc(CCC(=O)NCc3cnn(-c4ccccc4C)c3)o2)cc1,2.0,2%,·,-5,-2,
CCN1CCN(C(=O)C(=O)c2cn(CC(=O)N(CC)CC)c3ccccc23)CC1,1.4,·,·,-11,·,
CCCc1nnc(SCC(=O)N2CCOCC2)n1Cc1ccco1,-1.5,1%,12,-7,10,
C=CCn1c(SCC(=O)Nc2ccc3c(c2)OCO3)nnc1-c1ccccc1OC,2.2,6%,-54,6,-21,
Cc1ccccc1N1C(=O)C(Cl)=C(N2CCCCCC2)C1=O,8.2,-10%,-41,7,20,
O=C(CN1C(=O)CC(c2ccco2)Sc2ccccc21)NCC1CCCO1 (stereo not given),·,0%,-42,13,6,
CCOC(=O)C(C)n1ncn2cccc2c1=O (stereo not given),-0.8,-7%,-25,-8,-2,
CCOC(=O)c1sc(-c2ccc(F)cc2)cc1NC(=O)Nc1ccccc1OC,4.2,5%,-26,4,9,
Cc1ccc(C(=O)C2Oc3ccccc3C3CC(c4ccc(C)cc4)=NN23)cc1 (stereo not given),1.6,3%,-10,8,-9,
COCCn1cnnc1SCC(=O)Nc1cccc(S(=O)(=O)N2CCCCCC2)c1,0.5,4%,-36,-2,6,
Cc1ccc(C(=O)C[n+]2ccc(Cc3ccccc3)cc2)cc1,-0.1,5%,·,16,-4,
COc1cccc(CN2CCNC(=O)C2CC(=O)NCC(C)(C)N2CCOCC2)c1OC (stereo not given),-0.2,·,·,-6,·,
Cc1ccccc1COC(=O)CCCC1=NS(=O)(=O)c2ccccc2N1,-1.7,·,·,-5,·,
CCC1CCC(c2nnc(-c3ccc(Br)cc3)o2)CC1 (stereo not given),3.4,8%,-17,8,-1,
COc1c(Cl)cc(Cl)cc1CNCc1ccccc1,·,-8%,·,6,8,
CC(C)CCN1C(=O)c2ccc(C(=O)NCc3ccccn3)cc2C1=O,-3.5,·,·,3,·,

# Nothing new here: an excerpt of the list.
SMILES,RecA intein inh,Mtb growth,YopH PTP inh,Mtb betalactam,Arbovirus inh,others
Cc1ccc(C(=O)C[n+]2ccc(Cc3ccccc3)cc2)cc1,-0.1,5%,·,16,-4,
COc1cccc(CN2CCNC(=O)C2CC(=O)NCC(C)(C)N2CCOCC2)c1OC (stereo not given),-0.2,·,·,-6,·,
Cc1ccccc1COC(=O)CCCC1=NS(=O)(=O)c2ccccc2N1,-1.7,·,·,-5,·,
CCC1CCC(c2nnc(-c3ccc(Br)cc3)o2)CC1 (stereo not given),3.4,8%,-17,8,-1,
COc1c(Cl)cc(Cl)cc1CNCc1ccccc1,·,-8%,·,6,8,
CC(C)CCN1C(=O)c2ccc(C(=O)NCc3ccccn3)cc2C1=O,-3.5,·,·,3,·,

# New compounds follow:
SMILES,RecA intein inh,Mtb growth,YopH PTP inh,Mtb betalactam,Arbovirus inh,others
CCCc1cnc(N2CCN(C(=O)c3ccccc3)CC2)nc1,0.0,·,·,3,·,
CCOC(=O)NC(CC(=O)O)c1ccc(OC)cc1 (stereo not given),-8.3,-7%,-48,-6,-3,
COc1ccc(/C=C/C(=O)N[C@H](C(=O)O)C(C)C)cc1,-2.1,-4%,·,2,3,
CC(NC(=O)Nc1ccccc1Cl)c1ccc2c(c1)OCO2 (stereo not given),1.7,·,·,0,·,
Cc1ccc(SCCC(=O)OCC(=O)Nc2ccc(S(N)(=O)=O)cc2)cc1,-1.0,16%,·,-4,·,
CC(C)(C)OC(=O)N1CCC[C@H]1C(=O)Nc1ccc(Br)cc1,3.0,·,·,-1,·,
C[n+]1cccc(/C=N/Nc2nc(Cl)c(C#N)c(Cl)c2Cl)c1,·,-5%,·,6,·,
O=C(Nc1cccc(F)c1)NC1CCCCC1,1.1,-6%,-8,-3,2,
CC(=O)N=c1ncn(CC(COC(C)=O)OC(C)=O)c2nc[nH]c12 (stereo not given),0.2,-14%,-48,-1,6,
CN(CCNC(=O)CCNC(=O)Cn1ccc2ccccc2c1=O)Cc1ccccc1,4.1,-6%,-31,-9,7,
Cc1ccc(C)c(N2N=C(C(=O)Nc3ccccc3N3CCCC3)CCC2=O)c1,9.8,·,·,0,·,
Cc1c(/C=N/O)sc2ccccc12,0.8,2%,·,1,·,
Cc1cccc(NC(=O)CC2c3ccccc3Oc3ccccc32)c1,·,10%,-25,-3,-6,
C=CCc1cccc2cc(C(=O)O)c(=O)oc12,1.7,-8%,-23,-2,4,
NC(=O)NNC1=Nc2cccc3cccc1c23,·,8%,·,2,-6,
Cc1nn(Cc2nnc(SCC(=O)Nc3cccc(C(F)(F)F)c3)n2C)c(C)c1[N+](=O)[O-],-1.4,0%,·,-3,·,
O=C(O)CSc1nc(C(F)(F)F)cc(=O)n1-c1ccccc1,-11,-6%,-14,-3,4,
CCOC(=O)N1CCN(C(=O)CSCC(=O)Nc2nc(-c3cccs3)cs2)CC1,2.3,2%,-34,-9,17,
Cc1cc2ccccc2n1CCNC(=O)c1cccs1,5.8,9%,-35,10,3,Arbovirus inh repeat=-2
